# Sa growth 42C: blocks Staphylococcus aureus growth; S. aureus RN4220 growth, OD600, 20 h, 42 °C; hits give low values; relative growth, % (no concentration beside the values); 170,000 compounds, 0.53% hits; AID 720641;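 active = growth at 42 °C up to 50% and 20 or more points under that at 30 °C, or under 10% at both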;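 note: 300 nL library stock went into each well; scaled to the means of positive and negative controls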
# GIV Gai3 FP: inhibitors of GIV GBA-motif binding to rat Galpha-i3; P08753; Galpha-i3/FITC-GIV peptide fluorescence polarization, 90 min; hits give low values; scaled: aluminum fluoride 0%, vehicle 100%; percent of control (FP), % (concentration not given with the values); 210,000 compounds, 0.42% hits;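 active = replicate mean at 85% of control or lower, very high polarization wells dropped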;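 note: wells of about 15 µL received 100 nL stock; the first replicate is given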
# Target sequence (P08753 whole entry, looked up): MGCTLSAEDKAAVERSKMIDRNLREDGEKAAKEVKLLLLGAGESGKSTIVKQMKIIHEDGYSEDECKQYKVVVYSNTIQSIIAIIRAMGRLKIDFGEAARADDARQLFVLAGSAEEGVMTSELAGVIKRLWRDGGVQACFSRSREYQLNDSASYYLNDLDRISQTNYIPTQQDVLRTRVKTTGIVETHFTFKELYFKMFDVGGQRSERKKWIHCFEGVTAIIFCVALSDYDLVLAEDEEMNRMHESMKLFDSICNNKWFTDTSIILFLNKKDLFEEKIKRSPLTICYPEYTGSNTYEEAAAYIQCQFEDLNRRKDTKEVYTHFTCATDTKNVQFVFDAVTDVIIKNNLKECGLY
# HCMV NEC inh: cytomegalovirus nuclear egress complex inhibition | 190,000 compounds, 0.15% hits | HTRF UL50-UL53 interaction, normalized percent inhibition | AID 1918969 | inhibition, % (no concentration beside the values);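 active = both replicates at 50% or more, plus weaker picks with an unusually low signal ratio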;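 note: stock transfer was 100 nL into about 20 µL; 0% = negative control wells and 100% = wells with untagged competitor protein; inactives centre near -12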
# Sa growth 42C second temp: recorded beside Sa growth 42C, whose call it bears; relative growth, %; measured here: growth at 30 °C;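 optical density after 20 h as mean of two plates; 100% = untreated growth and lower means inhibition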
# * hit, by the source's call; . = no result given; & = joins results of further samples.
SMILES,Sa growth 42C,Sa growth 42C second temp,GIV Gai3 FP,HCMV NEC inh
CN(C)Cc1cc(CCNC(=O)c2ccc(Cl)cc2)ccc1O,109,96,98,10
N/C(=N\OC(=O)Nc1ccccc1)c1ccc2nonc2c1,96,91,102,-71
O=C(CCCN1C(=O)c2cccc3cccc(c23)C1=O)Nc1nc(-c2ccc(F)cc2)cs1,.,.,98,-8
O=c1c2[nH]c3ccccc3c2nc(SCc2ccccc2F)n1-c1ccc(F)cc1,122,84,96,.
CC(C)NCC(O)COc1ccc(COCCOC(C)C)cc1 (stereo unspecified),88&103,79&96,99,-8&-11&-3&-83&9&-15
Cc1cc(SCCOc2ccccc2)nc(N)n1,115,94,104,6
CCN1CCN(C(=O)c2ccc3c(c2)N(Cc2ccc(C)cc2)CCS3)CC1,89,101,106,.
CCCn1c(NCc2sccc2C)nc2ccccc21,84,68,102,-10
COc1cc(N2CCn3c(nc4ccccc43)C2)ccc1N,.,.,150,-58
C=CCNc1oc(-c2ccc(OC)cc2)nc1C#N,104,99,94,-6
CCc1ccc(-c2nc(CSCC(=O)NCc3ccc(C)cc3)c(C)o2)cc1,95,88,104,-26
COc1cccc(-c2nc(CS(=O)(=O)CC(=O)NCCc3ccc(OC)cc3OC)c(C)o2)c1,115,82,106,4
COCc1nc(SCC(=O)OC)c(C#N)cc1C(=O)OC,115,96,104,-78
COc1cccc(NC(=O)C2=C(C)Nc3nc(SCc4ccc(Cl)cc4)nn3C2c2ccccc2)c1 (stereo unspecified),.,.,100,-21
COc1cccc(CNC(=O)CC2C(=O)Nc3c2c(=O)n(C)c(=O)n3Cc2ccccc2)c1 (stereo unspecified),76,93,.,-27
COc1cccc(C(=O)NC2=NC(CC(C)C)CC(=O)N2)c1 (stereo unspecified),88,86,104,-24
Cc1ccc(S(=O)(=O)N(c2ccccc2)C(F)F)cc1,113,107,98,-8
Cc1nc(SCCN)n[nH]1,94,85,104,-23
CC(C)(C)C1CCc2c(sc(NC(=O)c3cc4ccccc4c(=O)o3)c2C(N)=O)C1 (stereo unspecified),97,85,108,-37
CCC(C)Sc1nnc(N)s1 (stereo unspecified),86,87,100,-16
CSc1nc2cccnc2s1,110,95,102,1
Cc1ccc(NC(=O)CSc2nc3nccnc3c(=O)n2CCc2c[nH]c3ccccc23)cc1C,106,79,98,-7
O=C(O)CCC1NC(=S)N(c2ccccc2)C1=O (stereo unspecified),90,83,103,-8
CCCCOC(=O)c1ccc(NC(=O)Cc2coc3c(C)c(C)ccc23)cc1,131,93,103,-1
C=C(C)C1CC=C(C)/C(=N/NC(=O)COc2ccc(C)cc2)C1 (stereo unspecified),102,94,102,-24
COc1ccc(/C=C/C=N/n2c(SC)nnc2-c2ccccc2)cc1,48,39,109,.
CN(C)c1ccc(C(=O)N2CCC(N3CCN(Cc4ccc(F)cc4)C(=O)C3=O)CC2)cc1,.,.,101,-18
Cc1ccc(/C=C/c2onc(C)c2S(=O)(=O)N2CCC(C(=O)N3CCC(N(C)C4CCCC4)CC3)CC2)cc1,.,.,104,-60
COc1ccc(C(CC(=O)c2ccccc2)CC(=O)c2ccccc2)cc1,97,92,103,-18
CC1CCC(C(C)C)C(OC(=O)COC(=O)c2cc(S(=O)(=O)N3CCOCC3)ccc2O)C1 (stereo unspecified),133,109,.,-3

# An excerpt from above in order of molar mass, ascending:
SMILES,Sa growth 42C,Sa growth 42C second temp,GIV Gai3 FP,HCMV NEC inh
Cc1nc(SCCN)n[nH]1,94,85,104,-23
CN(C)c1ccc(C(=O)N2CCC(N3CCN(Cc4ccc(F)cc4)C(=O)C3=O)CC2)cc1,.,.,101,-18
CC1CCC(C(C)C)C(OC(=O)COC(=O)c2cc(S(=O)(=O)N3CCOCC3)ccc2O)C1 (stereo unspecified),133,109,.,-3

# 4 records picked at random from those above:
SMILES,Sa growth 42C,Sa growth 42C second temp,GIV Gai3 FP,HCMV NEC inh
C=CCNc1oc(-c2ccc(OC)cc2)nc1C#N,104,99,94,-6
CCC(C)Sc1nnc(N)s1 (stereo unspecified),86,87,100,-16
CC(C)(C)C1CCc2c(sc(NC(=O)c3cc4ccccc4c(=O)o3)c2C(N)=O)C1 (stereo unspecified),97,85,108,-37
COc1cccc(CNC(=O)CC2C(=O)Nc3c2c(=O)n(C)c(=O)n3Cc2ccccc2)c1 (stereo unspecified),76,93,.,-27

# Following part.
SMILES,Sa growth 42C,Sa growth 42C second temp,GIV Gai3 FP,HCMV NEC inh
COC(=O)C1=C(C)NC2=C(C(=O)CC(c3ccc(Cl)cc3)C2)C1c1cc(Br)c(O)c(OC)c1 (stereo unspecified),.,.,100,-15
Cn1ncc(SCc2ccccc2)c(Cl)c1=O,73,79,101,-53
COc1cc2c(cc1OC)C(C(=O)Nc1ccc(F)c(Cl)c1)CC(=O)N2 (stereo unspecified),99,91,102,-16
CCOC1=NN(c2ccc([N+](=O)[O-])cc2)C(=O)/C1=C/c1ccc(OC)c(OC)c1OC,.,.,102,-15
O=C(NCCN1CCCCC1)c1ccc(Cn2c(SCc3ccc(F)cc3)nc3cccnc32)cc1,101,92,99&102,-36&-16
CC(=O)n1cc(/C=C2/C(=O)NC(=O)N(c3ccc(Cl)cc3)C2=O)c2ccccc21,.,.,99,9
CC1CCCC(NC(=O)COC(=O)/C=C/c2ccc(F)cc2)C1C (stereo unspecified),109,86,.,-33
Cn1ncc(Cl)c(Oc2ccccc2)c1=O,108,102,101,-19
Cc1ccc(C)c(OCC(O)Cn2c(C3CC3)nc3ccccc32)c1 (stereo unspecified),.,.,102,-16
CC1CCC(C(C)C)C(OP(N)(=O)c2ccc(N(C)C)cc2)C1 (stereo unspecified),89,85,94,-28
O=C(NCc1cccnc1)c1cccc(C(=O)NCc2cccnc2)n1,.,.,98,-13
S=c1sc(Nc2cc(Cl)ccc2Cl)nn1-c1ccccc1,116,45,104,-9
COc1cc(C(=O)Nc2nccs2)cc(OC)c1C,95,80,.,-17
Cc1sc2nc3n(c(=O)c2c1C)CCCS3,88,93,107,-10
COc1ccc(/C=C(\C#N)c2nc(-c3cc4ccccc4oc3=O)cs2)cc1OC,101,91,104,-28
CCN(CC)C(=O)C1CCCN(S(=O)(=O)c2cc(-c3noc(C4CC4)n3)sc2C)C1 (stereo unspecified),.,.,108,-12
CN(c1ccccc1)S(=O)(=O)c1cccc(C(=O)c2c(N)n(C)c(=O)[nH]c2=O)c1,92,82,.,-10
CN(CC(=O)O)C1=NS(=O)(=O)c2ccccc21,88,97,.,-11
O=C1c2ccccc2C(=O)N1CCNCCN1C(=O)c2ccccc2C1=O,98,89,104,-4
CCCc1nc(Nc2ccc(F)cc2)[nH]c(=O)c1Br,.,.,99,-32
Cc1cccc(Cn2cccc2CNS(=O)(=O)c2ccc(Br)cc2)c1,93,90,99,.
CC1CN(C2=CC(=O)CCC2)CC(C)O1 (stereo unspecified),99,99,.,-36
Cc1ccc2nc(-c3ccc4c(c3)NC(=O)CO4)cn2c1,113,84,.,-23
CCn1ccc2cc(S(=O)(=O)N3CCCN(C(=O)Nc4cccc(Cl)c4)CC3)ccc21,94,86,98&100,3
COc1ccc(-c2ccc(=O)n(CC(=O)NCC3CC3)n2)cc1OC,90,90,106,-53
COc1ccc(-c2cc3ccc(O)c(CN4CCN(CCO)CC4)c3oc2=O)cc1OC,73,83,125,.
CCOc1cccc(CNc2ccc(O)cc2)c1OCc1ccccc1Cl,87,81,101,5
CC1=C(C(=O)Nc2ccc(C(=O)N3CCCCCC3)cc2)SCCO1,90,88,106,-7
CS(=O)(=O)N1CCN(C(=O)C2c3ccccc3Oc3ccccc32)CC1,98,110,101,5
CC(C(O)c1ccccc1)N(C)S(=O)(=O)c1cccs1 (stereo unspecified),91,92,.,1

# Full records, looked up by structure:
# CC(=O)n1cc(/C=C2/C(=O)NC(=O)N(c3ccc(Cl)cc3)C2=O)c2ccccc21 as listed: Sa growth 42C = .; Sa growth 42C second temp = .; GIV Gai3 FP = 99; HCMV NEC inh = 9
# S=c1sc(Nc2cc(Cl)ccc2Cl)nn1-c1ccccc1 as listed: Sa growth 42C = 116; Sa growth 42C second temp = 45; GIV Gai3 FP = 104; HCMV NEC inh = -9

# (continued)
SMILES,Sa growth 42C,Sa growth 42C second temp,GIV Gai3 FP,HCMV NEC inh
O=C(CCc1nc2cccnc2n1-c1ccccc1)N1CCCCC1,98,88,106,.
CCc1c(C)sc(NC(=O)c2cc3nc(-c4ccc(OC)cc4)cc(C(F)(F)F)n3n2)c1C(=O)OC,96,97,104,-8
CC(=O)Nc1nc(C)c(-c2cn3cccnc3n2)s1,.,.,103,-26
O=C(CC(c1ccco1)C1CCCCC1=O)c1ccccc1 (stereo unspecified),95,78,99,.
Cc1oc2cc(OC(=O)c3ccco3)ccc2c(=O)c1-c1nc2ccccc2n1C,88,80,106,-37
Cc1ccc(S(=O)(=O)c2cn(CC(=O)Nc3ccc4c(c3)OCO4)c3ccc(C)cc3c2=O)cc1,112,83,106,-32
c1csc(-c2nnc(COc3nc4cc5c(cc4nc3N3CCOCC3)OCCO5)o2)c1,109,90,.,-7
Cc1ccc(SCC(=O)n2c3ccccc3c3ccccc32)cc1,97,95,101,.
Cn1c(=O)oc2cc(S(=O)(=O)NCCC(=O)NCc3ccc(F)cc3)ccc21,105,83,104,-33
Cc1ccc(NCC(=O)c2ccc(-n3nncc3-c3ccccc3)cc2)cc1,94,82,.,-28
O=C1c2cccnc2C(=O)N1C1CCCCC1,109,92,109,-54
CCOC(=O)C1CCCCN1 (stereo unspecified),87,91,103,.
COc1ccc2[nH]c(O)c(N=NC(=O)OC(C)(C)C)c2c1,94,91,106,-46
COc1ccccc1CC(=O)Nc1ccc(S(=O)(=O)N(C)C)cc1,105,98,100,-47
COc1ccc(C2CC(=O)C3=C(C2)Nc2ccccc2NC3c2cc([N+](=O)[O-])ccc2Cl)cc1 (stereo unspecified),.,.,106,41*

# Overlap with the part before: 2 entries, followed by the next part.
SMILES,Sa growth 42C,Sa growth 42C second temp,GIV Gai3 FP,HCMV NEC inh
COc1ccccc1CC(=O)Nc1ccc(S(=O)(=O)N(C)C)cc1,105,98,100,-47
COc1ccc(C2CC(=O)C3=C(C2)Nc2ccccc2NC3c2cc([N+](=O)[O-])ccc2Cl)cc1 (stereo unspecified),.,.,106,41*
CN(C)c1ncc(NS(=O)(=O)c2ccccc2Cl)cc1C(=O)O,.,.,94,-4
CSc1nn(-c2ccccc2)c(NC(=O)COc2cccc3c2OC(C)(C)C3)c1C#N,94,93,.,-10
CC(=O)Nc1nc(C)cs1,94,97,.,15
CN(CC(=O)NCCc1c[nH]c2ccccc12)c1nn2c(NC(C)(C)C)c(-c3ccc(F)cc3)nc2s1,.,.,102,-22
O=C(CCc1nc(-c2ccccc2F)no1)N1CCN(C2CCCCC2)CC1,95,93,105,2
Cc1c(C(=O)Nc2ccc3c(c2)OCO3)sc2ncnc(N3CCCCC3C)c12 (stereo unspecified),.,.,104&101,-11&6
COC(F)(C(=O)NC12CC3CC(CC(C3)C1)C2)C(F)(F)F (stereo unspecified),83,99,108,19
Cc1cc(NC(=O)COCc2cc(-c3ccc(F)cc3)on2)n(-c2ccccc2)n1,100,86,109,-3
O=C(NNc1ncccc1-n1cccc1)c1ccco1,102,94,102,-12
Cc1cccc(-c2cc3nc(C)cc(NCCCn4ccnc4)n3n2)c1,64,28,99,4

# Screening results from PubChem.
